YjeE inh: YjeE (TsaE) inhibition, E. coli | P0AF67 | purified YjeE, fluorescence polarisation of a bound ADP probe | Potency, µM | 71,000 tested, 0.05% active; active = well fitted falling curve; inconclusive = weaker or top-dose-only fall, or a rising curve; inactive = flat or poorly fitted curve;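 note: top concentration of the series not given in the record; excess ADP was the control for the full effect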
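Purified YjeE (10 uM) with BODIPY Texas Red-labeled ADP probe (2 uM); compounds pin-transferred, 15 min at room temperature. Binding inhibition read as decreased fluorescence polarization; ADP titration as control.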
Bst PK mod: modulators of Bacillus stearothermophilus pyruvate kinase | partly purified Bacillus stearothermophilus pyruvate kinase, luminescence ATP production; ribose 5-phosphate activator present at AC10 | Potency, µM | 51,000 tested, 1.2% active | AID 361; in the data active means potency below about 11 µM; inconclusive means mostly about 12 µM to 25 µM; inactive means weaker than that;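 the screen sought inhibitors and activators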;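 note: potency is the fitted concentration of half-maximal effect; scaled between full activation by ribose 5 phosphate and full inhibition by luteolin; about four in five hits inhibit and the cells do not say which; series up to 57 µM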
Starred values were filed as active, the others as inactive; i = inactive; u = inconclusive; x = not tested or not shown. This is a subset. The share of hits here may be higher or lower than overall.

SMILES	YjeE inh	Bst PK mod
COc1cccc(-c2ccc3ncnc(NCc4ccc(OC)cc4OC)c3c2)c1	i	x
CCOC(=O)Cn1c(CN(C)Cc2ccccc2)nc2c1c(=O)n(C)c(=O)n2C	i	>57
N#Cc1c(N)c(C(=O)c2ccccc2)n2c1CCC2	i	>57
COC(=O)[C@H](CC(C)C)NC(=O)NC1CCCc2ccccc21 (stereo partly drawn)	i	>57
Cn1c(CCN2CCOCC2)nc2cc(NC(=O)COc3ccccc3)ccc21	i	>57
Brc1cnc(N2CCCC2)nc1N1CCCCC1	i	x
CCN(CC)C(=O)c1cccc(C)c1	i	x
CN(CC(O)COCc1cccs1)C1CCCCC1 (stereo not drawn)	i	>57
O=C(O)C1CCCN1C(=O)Nc1ccc(F)cc1 (stereo not drawn)	i	>57
Cc1nnc(SCC2CCCO2)n1-c1ccccc1 (stereo not drawn)	i	>57
CCC/C=C(\CCC)C(NS(=O)(=O)c1ccc(Cl)cc1)c1ccc(C(=O)OC)cc1 (stereo not drawn)	i	x
CN(C)c1ccc(-c2nn3c(-c4ccccc4Cl)nnc3s2)cc1	i	x
CCOc1ccc(Cl)cc1S(=O)(=O)n1cnc2ccccc21	i	>57
Cc1ccc(OC(=O)C(F)(F)F)c2c1NCCC2	i	x
COCc1cc(=O)n2c(-c3ccc(C)cc3)n[nH]c2n1	i	x
CCn1c(N2CCC(Cc3ccccc3)CC2)nc2c1c(=O)[nH]c(=O)n2C	i	>57
Cc1ccc2c(c1)nnn2C1CCN(S(=O)(=O)c2ccc(C(=O)N(C)C)cc2)CC1	i	>57
C=CCN=C(C)C1=C(O)CCC1=O	x	>25.6
Cc1nc2ccc(Cl)cc2nc(C)/c1=N\O	i	i
O=C(c1ccc(C(F)(F)F)cc1)N1CCCCC1	i	>57

Sorted by molecular weight (high to low): some entries from above.
SMILES	YjeE inh	Bst PK mod
CCC/C=C(\CCC)C(NS(=O)(=O)c1ccc(Cl)cc1)c1ccc(C(=O)OC)cc1 (stereo not drawn)	i	x
CN(C)c1ccc(-c2nn3c(-c4ccccc4Cl)nnc3s2)cc1	i	x
COCc1cc(=O)n2c(-c3ccc(C)cc3)n[nH]c2n1	i	x
Cc1nc2ccc(Cl)cc2nc(C)/c1=N\O	i	i

A section taken from the entries so far:
SMILES	YjeE inh	Bst PK mod
C=CCN=C(C)C1=C(O)CCC1=O	x	>25.6
Cc1nc2ccc(Cl)cc2nc(C)/c1=N\O	i	i
O=C(c1ccc(C(F)(F)F)cc1)N1CCCCC1	i	>57

Following part:
SMILES	YjeE inh	Bst PK mod
COCCNC(=O)COC(=O)CSCc1nc2ccccc2s1	i	>57
O=C(c1cc(-c2ccncc2)nc2ccccc12)N1CCN(c2ccccn2)CC1	i	>57
CCCCN1C(=O)NC(NC(C)=O)(C(F)(F)F)C1=O (stereo not drawn)	i	>57
CCN(CC)CCCOc1nc(C)nc2c1oc1ccccc12	i	>57
CCOC(=O)N1CCC(n2c(SCC(=O)NCc3ccco3)nc3ccsc3c2=O)CC1	i	>57
Cc1noc(C)c1C(=O)N1CCC2(CC1)CN(c1ccccn1)C2	i	x
COc1ccc(C2C3=C(CC(C)(C)CC3=O)Nc3c2c(=O)[nH]c(=O)n3Cc2ccccc2)cc1 (stereo not drawn)	i	x
O=C(NCc1ccccc1)C1CCN(S(=O)(=O)N2CCOCC2)CC1	i	>57
CNS(=O)(=O)c1cc(OC)ccc1OC	i	>57
Cc1cc(C)n(-c2cc(N3CCOCC3)ncn2)n1	i	x
CC1(C)CC(=O)C(Sc2nnc(-c3ccc(O)cc3)n2CC2CCCO2)C(=O)C1 (stereo not drawn)	i	>57
O=C1NCCCN1Cc1ccc(F)cc1Cl	i	>57
COC(=O)[C@@H](NC(=O)N1CCN(c2cccc(C(F)(F)F)c2)CC1)C(C)C	i	>57
CCN(C(=O)COC(=O)c1cccnc1SC)C1CCS(=O)(=O)C1 (stereo not drawn)	i	>57
N#Cc1cc2ccc(N3CCOCC3)cc2cc1C#N	i	x
CC(C)Sc1nnc(NC(=O)C2CC2)s1	i	x
CCOC(=O)CSc1nnc(CNC(=O)c2ccc(OC)cc2)n1Cc1ccccc1	i	>57
CCn1c2ccccc2c2cc(/C=N/n3cnnc3)ccc21	i	x
CCCC(=O)NCCCc1nc2ccccc2[nH]1	i	x
CCOc1cc(C2NC(=O)NC(C)=C2C(=O)OCc2ccccc2)ccc1O (stereo not drawn)	i	>57
Cc1nnc2sc(-c3cc4ccccc4o3)nn12	i	>57
CCc1c(C)c2nncn2[nH]c1=O	i	>57
Clc1ccccc1-c1nc(NCc2cccs2)c2ccccc2n1	u	x
C=CCn1c(=O)c2c(nc(-c3ccc(S(=O)(=O)O)cc3)n2C)n(C)c1=O	i	x
O=C(CCn1[nH]c(=O)c2ccccc2c1=O)NCCO	i	x
CCOC(=O)Cc1csc(NC(=O)CSc2nnc(Cc3csc(N)n3)n2C)n1	i	>57
Cc1c(CN(C)C)c2c(n1C)C(=O)c1ccc(Br)cc1-2	i	u
COc1ccccc1C1CC(=O)NC(C)=C1C(=O)OCC(C)C (stereo not drawn)	i	>57
Cc1cccn2c(=O)c3cc(C(=O)N4CCc5ccccc5C4)n(C)c3nc12	i	>57
C=C(C)Cn1c(=O)c(NC(=O)c2ccccc2)c2n(c1=S)CCC2	i	>57
O=C(COC(=O)c1ccc2c(c1)OCCO2)NCCC1=CCCCC1	i	>57
O=C(CN1CCN(c2ccc(Cl)cc2)CC1)Nc1cccc(F)c1	i	>57
COc1ccc(-c2nnc(SCc3cc(C)cc(C)c3)o2)cc1	i	>57
CCn1c(SCC(=O)N2CCN(c3ccccc3)CC2)nnc1-c1ccoc1C	i	>57
N[C@H]1CCN(O)C1=O	i	x
CCOC(=O)C1CCCN(CC(=O)NC2=Nc3ccccc3N=C(C)C2c2ccccc2)C1 (stereo not drawn)	i	>57
O=C(CSc1nnc(-c2cccs2)o1)OC1CCCCC1	i	>57
O=C(CN1C(=O)CSC1=O)NCc1ccccc1	i	>57
CCOC(=O)c1cnn(-c2ncnc3sc(C)c(C)c23)c1N	i	x
CCOC(=O)c1cnc(-n2cc(C)cn2)nc1NCc1ccc2c(c1)OCO2	i	>57
O=C(Nc1ccc(Cc2ccncc2)cc1)c1ccco1	i	x
COC(=O)c1ccc(Cn2nnc3c(sc4nc(N5CCOCC5)c5c(c43)CCCC5)c2=O)o1	x	>11.4
CC1=CCC(C(=O)O)C(C(=O)O)C1 (stereo not drawn)	i	x
CC(C)C(NS(=O)(=O)c1cccs1)C(=O)N1CCc2ccccc2C1 (stereo not drawn)	i	>57
CC(=O)CCc1ccc2oc(C(=O)O)c(C)c2c1	i	>57
O=C(NC1CCCCCC1)c1cccs1	i	x
Cc1cc(NC(=O)C2CC(c3cccc(Br)c3)=NO2)no1 (stereo not drawn)	i	>57
CCCc1nc2oc3c(NCCOCCO)ncnc3c2c2c1COC(C)(C)C2	i	>57
O=C(Nc1ccc(N2CCN(Cc3ccccc3Cl)CC2)cc1)c1cccnc1	i	>57
COc1ccc(Cc2nn3c(-c4ccccc4Br)nnc3s2)cc1	i	>57

Following part
SMILES	YjeE inh	Bst PK mod
CCN(CC)S(=O)(=O)N1CCC(C(=O)NCC2COc3ccccc3O2)CC1 (stereo not drawn)	i	>57
CC12CC(NC(=O)N1CCc1ccccc1)c1cc(Cl)ccc1O2 (stereo not drawn)	i	>57
Cc1sc2ncn(CCn3cnc4sc(C)c(C)c4c3=O)c(=O)c2c1C	i	>57
O=C(Nc1ccc2c(c1)oc1ccc(S(=O)(=O)N3CCCC3)cc12)C1CC1	i	>57
COC(=O)CSc1nc2ccccc2c(=O)n1C	i	>57
O=C(COC(=O)c1cccc(S(=O)(=O)N2CCc3ccccc3C2)c1)NCc1ccco1	i	>57
CC(C)(C)n1ncc2c(=O)n(Cc3ccc(Cl)cc3Cl)cnc21	i	2.88*
CCN1CCN(CCCNC(=O)C2c3ccccc3C(=O)N(C)C2c2ccc(OC)cc2)CC1 (stereo not drawn)	i	>57
C[C@H]1C[C@@H]2[C@H]([C@@H](O)C[C@@]3(C)[C@H]2CC[C@]3(O)C(=O)CO)[C@@]2(C)C=CC(=O)C=C12	x	>25.6
CN(Cc1ccco1)c1nc(-c2ccccc2Cl)nc2ccccc12	i	x
CCOC(=O)c1ccc2ncc(C(=O)OCC)c(NCc3ccco3)c2c1	i	>57
Cn1c(=O)c2c(nc(N3CCc4ccccc4C3)n2Cc2ccccc2F)n(C)c1=O	i	>57
O=C(NC1CCCC1)c1ccc2nc(-c3ccco3)c(-c3ccco3)nc2c1	i	x
CN(C)CCCNc1oc(-c2ccccc2)nc1C#N	i	>57
CCCS(=O)(=O)N1CCc2cc(OC)c(OC)cc2C1	i	>57
CC(C)(C)c1cc(C(=O)N2CCc3ccccc32)ccn1	i	x
O=C1c2ccccc2C(=O)N1CCCCCc1nc(-c2ccccc2)no1	i	>57
Cc1cc(C)n2nc3ccccc3c2n1	i	x
C=C1N(CCCCCC(=O)O)C(=O)OC12CCCCC2	i	>57
CCCOc1ccc(-c2nnc(-c3ccco3)o2)cc1	i	3.41*

Random excerpt: four compounds from above, in no set order.
SMILES	YjeE inh	Bst PK mod
COc1ccc(-c2nnc(SCc3cc(C)cc(C)c3)o2)cc1	i	>57
Cc1sc2ncn(CCn3cnc4sc(C)c(C)c4c3=O)c(=O)c2c1C	i	>57
COc1ccc(Cc2nn3c(-c4ccccc4Br)nnc3s2)cc1	i	>57
N#Cc1c(N)c(C(=O)c2ccccc2)n2c1CCC2	i	>57

The listing picks up, starting 2 compounds before the break.
SMILES	YjeE inh	Bst PK mod
C=C1N(CCCCCC(=O)O)C(=O)OC12CCCCC2	i	>57
CCCOc1ccc(-c2nnc(-c3ccco3)o2)cc1	i	3.41*
O=C(CSc1nnc(C2CC2)n1Cc1ccccc1)c1ccc(S(=O)(=O)N2CCOCC2)cc1	i	>57
CN1CCN(c2nc(N3CCN(c4ccccc4)CC3)ncc2F)CC1	i	>57
O=C(Nc1ccc2c(c1)OC1(CCCC1)O2)C1CC1	i	>57
CCC1=Nc2ccccc2-c2nnc(SC)nc2O1	i	x
Nc1c(C(=O)NCCc2ccccc2)nnn1Cc1ccccc1	i	>57
C=C[C@@]1(C)C=C2CC[C@@H]3[C@](C)(CCC[C@@]3(C)C(=O)O)[C@H]2CC1	i	x
Cc1onc(-c2c(F)cccc2Cl)c1C(=O)Nc1nc2c(s1)CCCC2	i	>57
O=C(Nc1ccc(-c2cn3ccsc3n2)cc1)c1ccc(F)c(S(=O)(=O)N2CCOCC2)c1	i	>57
CCOc1ccc(CNC(=O)C2CC(=O)N(C3CCCC3)C2)cc1OC (stereo not drawn)	i	>57
COc1cc(=O)[nH]c(=O)n1C(=O)Cc1ccccc1	i	x
CC(C)(C)NS(=O)(=O)c1ccc(CCC(=O)NCc2ccco2)cc1	i	>57
Cc1nc2ccc(F)cc2cc1C(=O)NCC1CCCO1 (stereo not drawn)	i	>57
CCOC(=O)N1CCC(NC(=O)c2cc3c(-c4cccc(OC)c4)nn(C)c3s2)CC1	i	>57
Cn1c(=O)c2c(nc(CN3CCN(C(=O)c4ccco4)CC3)n2Cc2ccccc2)n(C)c1=O	i	>57
O=C1c2ccccc2C(O)(c2ncc[nH]2)N1C1CCCCC1 (stereo not drawn)	i	x
O=C1c2ccccc2C(=O)N1CCC(=O)N1CCc2ccccc21	i	>57
O=C(Nc1ccc2c(c1)OCCO2)c1ccc(Br)c(S(=O)(=O)N2CCOCC2)c1	i	x
CCCCCCN=C(C)C1=C(O)C(C(=O)OC)C(C)(C)CC1=O (stereo not drawn)	i	>57
COCCn1nnnc1C(c1cc2ccc(C)cc2[nH]c1=O)N(Cc1ccco1)Cc1cccs1 (stereo not drawn)	i	>57
O=C1CCN(S(=O)(=O)c2ccccc2)C2CCCCC12 (stereo not drawn)	i	>57
COc1ccc(OCc2ccc(C(=O)O)cc2)cc1	i	>57
O=C(Cn1cc2c(n1)CCCCC2)NCc1ccccn1	i	x
CCCCCn1c(=O)[nH]c2cc(C(=O)NCCN(CC)CC)ccc2c1=O	i	>57
O=C(C1CCN(S(=O)(=O)c2cccc3cccnc23)CC1)N1CCCC1	i	x
Cc1cccc(C(=O)N2CCC(n3nnc4cc(F)ccc43)CC2)c1	i	>57
CC(C)NC[C@@H](O)COc1ccccc1-n1cccc1	i	x
Cc1cc(OCC(=O)Nc2cc(-c3nn4c(C)nnc4s3)ccc2C)ccc1Cl	i	x
Cc1c(C(=O)OCC(=O)N(CCC#N)c2ccccc2)oc2c1ccc1ccccc12	i	>57
CCOC(=O)/C=C1\SCC(=O)N1CC(=O)c1ccc[nH]1	i	>57
CCOc1ccc(NC2=NCC(=O)N2CCc2ccccc2)cc1	i	>57
O=c1c(-c2cc(F)cc(F)c2)nc2cnc(N3CCNCC3)nc2n1-c1ccccc1	i	x
Cc1ccc(CNC(=O)C(C)OC(=O)c2ccco2)cc1 (stereo not drawn)	i	>57
Cc1ccc(S(=O)(=O)c2c(N)n(NC(=O)C3CC3)c3nc4ccccc4nc23)cc1	i	>57
COc1ccc(-c2noc(CCCC(=O)NCc3ccco3)n2)cc1OC	i	>57
O=C1CCCN1CCCNc1ncnc2c1cnn2-c1ccc(Cl)cc1	i	x
CCOC(=O)Cn1c(=N)n(Cc2ccccc2)c2ccccc21	i	>57
CCn1nc(C(=O)OCC(=O)NCCN2C(=O)CSC2=O)c2ccccc2c1=O	i	>57
COC(=O)c1ccc(C2/C(=C(\O)c3cccc(OC)c3)C(=O)C(=O)N2CCCN2CCOCC2)cc1 (stereo not drawn)	x	>25.6
CCSc1nnc2c(n1)[nH]c1c(C)cccc12	i	x
